# Screening results from PubChem.
# Yeast UUG start – modulators of start codon recognition fidelity in yeast | AID 602363 | activity score, % at 18.7 µM | 350,000 compounds, 0.13% hits | S. cerevisiae UUG-firefly luciferase reporter, luminescence/redox ratio;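 active = replicate mean at a twofold rise or more, about +100% in these data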;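 also: firefly luciferase made from a UUG start codon reports start codon fidelity; reporter light over untreated wells divided by growth signal over untreated wells; some hits fall short of that in this replicate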
# Env fusion inh – inhibitors of HIV Env-mediated cell fusion; HeLa-JRFL Env/CEM21 cell fusion, luciferase; inhibition, % at 12.3 µM; 360,000 compounds, 1.1% hits; AID 651610;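 active = mean replicate inhibition score of at least 50 and every replicate individually at or above 50; inconclusive = only one of the two criteria met; inactive = mean below 50 and not all replicates reaching 50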;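 also: 0% = plate neutral controls and 100% = maraviroc near 300 nM; one replicate is shown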
# CSC inhib – cancer stem cell inhibition | cancer stem cell-like cells viability, luminescence | inhibition, % at 7.5 µM | 300,000 compounds, 1.1% hits | AID 2717;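 active = mean at 75% or more and at least half the replicates too; inconclusive = mean and replicates disagree; tested in HMLE shEcad cells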;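 also: 0% = median of negative and 100% = median of positive control wells; the first replicate is given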
# Rce1 inhib – blocks yeast Ras-converting enzyme. Q03530. yeast membranes, quenched prenylated peptide cleavage fluorescence. calls only. 290,000 compounds, 0.27% hits. AID 2563;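 active = fall in fluorescence gain of 50% or more versus controls, with final raw signal at or below 3038400; inconclusive = same 50% fall but final raw signal above 3038400; inactive = fall in fluorescence gain under 50%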;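 also: plate controls were neutral control wells for no effect and wells lacking membranes for full effect; tested at 10 µM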
# Target sequence (Q03530 whole entry, looked up): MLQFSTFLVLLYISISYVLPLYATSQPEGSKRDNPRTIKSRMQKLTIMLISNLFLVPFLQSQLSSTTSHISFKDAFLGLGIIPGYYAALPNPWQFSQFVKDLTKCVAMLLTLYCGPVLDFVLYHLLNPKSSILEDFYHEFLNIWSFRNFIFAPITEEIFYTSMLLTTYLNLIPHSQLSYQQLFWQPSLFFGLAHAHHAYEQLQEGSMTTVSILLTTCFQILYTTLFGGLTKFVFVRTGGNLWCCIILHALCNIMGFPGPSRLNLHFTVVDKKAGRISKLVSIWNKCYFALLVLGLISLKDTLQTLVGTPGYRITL
# PABP polyA inh – blocks human PABP binding to poly(A) RNA; fluorescence polarization; inhibition, % at 35 µM; AID 2014; 290,000 compounds, 1% hits; P11940;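 active = 50% or more with normal probe brightness, or confirmed in later tests; inconclusive = above 50% with abnormal brightness, or retests that disagree; inactive = below 50% or failed in later tests; about a fifth of its hits are not listed in these tables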;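 also: calls also rest on retests at 20 µM and on dose response follow-up; controls were probe without protein and protein plus probe with vehicle; some compounds called inactive have numbers as strong as hits; many hits fall short of the cut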
# eIF4H FP inh – inhibitors of RNA binding by human eIF4H; eIF4H fluorescence polarization binding assay; 290,000 compounds, 0.94% hits; inhibition, % at 35 µM; Q15056; AID 2012;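 active = 50% or more with normal probe brightness, or confirmed in later tests; inconclusive = above 50% with abnormal brightness, or retests that disagree; inactive = below 50% or failed in later tests; about a fifth of its hits are not listed in these tables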;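 also: calls also rest on retests at 20 µM and on dose response follow-up; 0% = protein and probe with vehicle and 100% = probe without protein; strong numbers were not always called active; many hits fall short of the cut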
# MT1-MMP act inh – MT1-MMP (human) activation inhibition; GFP/RFP ratio change, % at 20 µM; P50281; AID 651647; 360,000 compounds, 0.061% hits; HT1080 RFP-PRO-GFP cells, GFP/RFP ratio fluorescence, overnight; percent of plate control window, DMSO zero;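 active = GFP/RFP ratio change of at least 30% with cell ATP level not reduced by more than half and red fluorescence within 50% of control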; also: strong numbers were not always called active
#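 Read-out: GFP/RFP fluorescence ratio; Test system: RFP-PRO-GFP reporter HT1080 cells; Compound dosing: single-point 20 µM compound, 1% DMSO; Times: overnight compound exposure at 37 °C.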
# MT1-MMP act inh RFP – also measured in MT1-MMP act inh; calls as there; RFP signal change, %; measured here: RFP expression control read;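 0 = vehicle wells; hits needed this value within 50% of zero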
# Active calls of the source: *; i = inactive; ? = inconclusive; . = no result given. A portion of the library; rates above refer to the full screens.
SMILES,Yeast UUG start,Env fusion inh,CSC inhib,Rce1 inhib,PABP polyA inh,eIF4H FP inh,MT1-MMP act inh,MT1-MMP act inh RFP
Cc1ccc(Cn2cccc(NC(=O)NC3CCCCC3)c2=O)cc1,.,-22,-5,i,-4,3,-37,-32
COc1cc(NC(=O)C(C)Oc2ccccc2)ccc1NC(=O)COc1ccccc1 (configuration not stated),-10,21,2,i,1,-17,0,-10
COc1ccc(C(=O)N(CCCO)C(C)C(=O)NC2CCCCC2)cc1OC (configuration not stated),-3,22,-15,i,2,0,3,10
Cc1csc(NC(=O)c2cc3ccccc3o2)n1,-58,-123,.,.,.,.,-3,-4
CC1=C(c2ccc(C(C)C)cc2)S(=O)(=O)N=C1N1CCN(C(=O)c2ccco2)CC1,2,0,-4,i,-5,29,6,-4
CCC(C)(C)n1nnnc1C(c1ccc(C)cc1)N1CCCC1 (configuration not stated),-17,.,.,i,22,-5,-3,-2
CC(=O)Nc1ccc(C)c(NC(=S)Nc2ccc(F)cc2)c1,-29,7,0,i,14,-6,7,3
CCOCCCNC(=O)c1cn(CC(C)C)c(=O)c2c1c1ccccc1n2C,.,1,-4,i,-7,0,0,3
O=C(Nc1ccc2c(c1)OCCO2)NC1CCCCC1,-41,.,-3,i,8,-5,-6,-2
Cc1c(C)c2ccc(OC(C)C(=O)NC3CC(C)(C)NC(C)(C)C3)cc2oc1=O (configuration not stated),-13,2,-17,i,.,.,-2,6
Cc1ccc(CSc2nc3sc(C)c(C)c3c(=O)n2Cc2ccco2)cc1,-10,-6,?,i,-1,-1,1,-3
COc1ccccc1NC(=O)/C(C#N)=C/c1cc([N+](=O)[O-])ccc1N1CCCC1,.,-7,0,i,0,?,-41,1
CC(=O)Nc1cccc(N2C(=O)CC(Cc3ccccc3)C2=O)c1 (configuration not stated),3,.,2,i,1,-1,-1,5
COCOc1cccc(CN2CCC2(C)C(=O)Nc2cc(OC)ccc2OC)c1 (configuration not stated),-5,6,.,.,.,.,4,-6
CCCCC(=O)NC(=S)Nc1ccccc1C(=O)Nc1ccccc1,.,-1,11,i,-3,-1,1,1
O=C(CSc1ccccc1)NCc1ccccc1,-4,-17,-10,i,2,-13,3,1
CCSc1nnc(NC(=O)Cn2cnc3c2c(=O)n(C)c(=O)n3C)s1,.,-4,-9,i,2,2,4,3
CN1CC(=O)N(CCOc2ccccc2)C1=O,-1,.,-11,i,5,-2,0,7
CN1C[C@@H]2[C@@H]3C(=O)N(Cc4ccccc4)C(=O)[C@@H]3[C@](C)(C1=O)N2C(=O)c1ccc(Br)cc1,7,-3,.,.,.,.,-1,-3
N#CC1=C(N2CCOCC2)/C(=C\c2ccccc2)CC1,.,22,15,i,-2,-1,-1,-4
CCOC(=O)CSc1nc(C)[nH]c1[N+](=O)[O-],.,11,-5,.,4,-8,5,8
Cc1cccc(-c2cc3nc4c(c(N5CCC6(CC5)OCCO6)n3n2)CCCC4)c1,-9,.,48,.,.,.,-1,-9
CN(C)CCCN1C(=O)c2cc3ccccc3cc2C1=O,-20,2,-4,i,7,4,2,-1
COc1ccc(NC(=O)N2CCCC2C(=O)NC23CC4CC(CC(C4)C2)C3)cc1 (configuration not stated),-11,3,.,i,10,4,-2,-3
CCN(CC)CCCNC(=O)C1c2ccccc2C(=O)N1Cc1ccc(C)cc1 (configuration not stated),-4,-36,-20,i,-9,-14,-3,0

# 18 entries from above, ordered by SMILES length, low to high:
SMILES,Yeast UUG start,Env fusion inh,CSC inhib,Rce1 inhib,PABP polyA inh,eIF4H FP inh,MT1-MMP act inh,MT1-MMP act inh RFP
O=C(CSc1ccccc1)NCc1ccccc1,-4,-17,-10,i,2,-13,3,1
CN1CC(=O)N(CCOc2ccccc2)C1=O,-1,.,-11,i,5,-2,0,7
Cc1csc(NC(=O)c2cc3ccccc3o2)n1,-58,-123,.,.,.,.,-3,-4
O=C(Nc1ccc2c(c1)OCCO2)NC1CCCCC1,-41,.,-3,i,8,-5,-6,-2
CN(C)CCCN1C(=O)c2cc3ccccc3cc2C1=O,-20,2,-4,i,7,4,2,-1
CCOC(=O)CSc1nc(C)[nH]c1[N+](=O)[O-],.,11,-5,.,4,-8,5,8
CCC(C)(C)n1nnnc1C(c1ccc(C)cc1)N1CCCC1 (configuration not stated),-17,.,.,i,22,-5,-3,-2
CCCCC(=O)NC(=S)Nc1ccccc1C(=O)Nc1ccccc1,.,-1,11,i,-3,-1,1,1
Cc1ccc(Cn2cccc(NC(=O)NC3CCCCC3)c2=O)cc1,.,-22,-5,i,-4,3,-37,-32
CC(=O)Nc1cccc(N2C(=O)CC(Cc3ccccc3)C2=O)c1 (configuration not stated),3,.,2,i,1,-1,-1,5
CCSc1nnc(NC(=O)Cn2cnc3c2c(=O)n(C)c(=O)n3C)s1,.,-4,-9,i,2,2,4,3
CCN(CC)CCCNC(=O)C1c2ccccc2C(=O)N1Cc1ccc(C)cc1 (configuration not stated),-4,-36,-20,i,-9,-14,-3,0
COc1cc(NC(=O)C(C)Oc2ccccc2)ccc1NC(=O)COc1ccccc1 (configuration not stated),-10,21,2,i,1,-17,0,-10
COc1ccc(NC(=O)N2CCCC2C(=O)NC23CC4CC(CC(C4)C2)C3)cc1 (configuration not stated),-11,3,.,i,10,4,-2,-3
Cc1c(C)c2ccc(OC(C)C(=O)NC3CC(C)(C)NC(C)(C)C3)cc2oc1=O (configuration not stated),-13,2,-17,i,.,.,-2,6
COc1ccccc1NC(=O)/C(C#N)=C/c1cc([N+](=O)[O-])ccc1N1CCCC1,.,-7,0,i,0,?,-41,1
CC1=C(c2ccc(C(C)C)cc2)S(=O)(=O)N=C1N1CCN(C(=O)c2ccco2)CC1,2,0,-4,i,-5,29,6,-4
CN1C[C@@H]2[C@@H]3C(=O)N(Cc4ccccc4)C(=O)[C@@H]3[C@](C)(C1=O)N2C(=O)c1ccc(Br)cc1,7,-3,.,.,.,.,-1,-3

# The list goes on:
SMILES,Yeast UUG start,Env fusion inh,CSC inhib,Rce1 inhib,PABP polyA inh,eIF4H FP inh,MT1-MMP act inh,MT1-MMP act inh RFP
CC(=O)c1c(O)cc(C(C)C)n(-c2ccccc2)c1=O,-4,-259,-11,i,-6,5,-4,6
NCc1nc(-c2ccc(Cl)cc2)no1,.,-34,7,i,-1,0,0,3
CC(C)c1ccc(NC(=O)NC(C)c2ccc3c(c2)OCO3)cc1 (configuration not stated),-9,-2,23,i,4,-3,3,0
O=C(NCc1ccco1)C(c1cccs1)N(C(=O)Cc1cccs1)c1ccccc1 (configuration not stated),-10,45,-10,.,5,31,-14,-5
CCCC(=O)Nc1ccc(C(=O)Nc2nnc(COCC)s2)cc1,-10,5,-9,i,8,8,6,6
COc1ccc(C(O)c2nc(/C=C/c3ccc(C(F)(F)F)cc3)cs2)cc1 (configuration not stated),-12,36,.,.,.,.,0,-5
CC(=O)Nc1nc2ccccc2n1CCOc1ccccc1,-16,.,2,i,16,0,10,3
Cc1ccnc(NS(=O)(=O)c2ccc(NC(=O)c3c(-c4ccccc4Cl)noc3C)cc2)n1,-4,-126,-4,i,-6,-12,0,2
CC(C)c1nc(SCC(=O)Nc2ccc(N3CCOCC3)cc2)c2ccccc2n1,-16,-111,.,i,-1,-1,0,-7
O=C(NCC(c1ccco1)N1CCN(c2ccccc2F)CC1)c1ccco1 (configuration not stated),-14,.,4,i,.,.,3,2
O=C(c1ccc(F)cc1)N1CCN(c2ccc(N3CCOCC3)nn2)CC1,-7,15,-16,i,-4,-15,1,2
Cc1cc(Cl)ccc1OCC(=O)NCc1ccncc1,-8,.,-8,i,-4,-11,5,-9
O=C(NCC(c1ccco1)N1CCCCC1)c1ccc(NS(=O)(=O)c2ccc(F)cc2)cc1 (configuration not stated),1,.,-5,i,-1,-7,4,0
O=S(OCCN1CCOCC1)C(c1ccccc1)c1ccccc1 (configuration not stated),-10,-26,.,.,.,.,6,5
CCOCc1nnc(NC(=O)c2cc(OC)c(OC)c(OC)c2)s1,-7,8,-6,i,11,-5,0,-2
CC(C)(O)CC[C@@H](O)[C@](C)(O)C1CC[C@@]2(O)C3=CC(=O)[C@@H]4C[C@@H](O)[C@@H](O)C[C@]4(C)C3CC[C@]12C (some centres not stated),-3,-24,-17,.,.,.,-3,1
Cc1ccc(C(=O)NNC(=O)c2cc3ccccc3cc2O)cc1,-4,4,17,i,8,18,5,-1
Oc1oc(-c2ccccc2Br)nc1/C=N/c1ccccn1,.,2,-4,i,2,-2,2,7
CCS(=O)(=O)NCC(c1cccnc1)N1CCN(c2ccccc2)CC1 (configuration not stated),-8,-9,-4,i,8,2,9,6
CC(C)n1nc(C(=O)Nc2nnc(C3CC3)s2)c2ccccc2c1=O,.,5,-5,i,1,-3,-1,1
CCOC(=O)C1=CN(Cc2ccco2)S(=O)(=O)N(C)C1c1ccc2ccccc2c1 (configuration not stated),2,28,.,.,.,.,-4,-6
COc1ccc(NC(=O)CN2CCN(CC(=O)Nc3ccc(F)cc3F)CC2)cc1,-5,9,.,i,5,-8,.,.
N#CC(c1ccc(Cl)nn1)c1ccccc1Cl (configuration not stated),5,.,.,i,-10,0,-5,1
CCOCCCNC(=O)c1cc2c(=O)n3ccccc3nc2s1,6,-12,-4,i,4,-12,-2,-1
CC(OC(=O)c1ccccc1C(=O)N(C)c1ccccc1)C(=O)Nc1ccc(C(N)=O)cc1 (configuration not stated),8,-2,-9,i,.,.,0,2

# Later entries:
SMILES,Yeast UUG start,Env fusion inh,CSC inhib,Rce1 inhib,PABP polyA inh,eIF4H FP inh,MT1-MMP act inh,MT1-MMP act inh RFP
O=C(/C=C/c1ccccc1[N+](=O)[O-])Nc1ccccc1,.,-43,22,i,-14,-6,1,2
S=C(Nc1ccc(Cl)cc1Cl)N1CCCCC1,.,7,-18,i,-10,-5,4,3
O=C(C(Cc1ccccc1)n1cccc1)N1CCN(c2ncccn2)CC1 (configuration not stated),-15,-48,-8,i,-1,2,5,-1
COc1ccc(CSc2nc(N3CCOCC3)c3c(c2C#N)CC(C)(C)OC3)cc1,-4,38,35,i,-10,-13,-11,-9
CCCC(=O)NCCCc1nc2ccccc2n1CCC,0,-95,-1,i,0,-5,2,1
CCN(CC)CCOC(=O)c1cccc2c1-c1ccccc1C2O (configuration not stated),.,-6,-15,i,5,3,-1,0
O=C1C=C(c2ccc(-c3ccccc3)cc2)C[C@@H](c2ccc3c(c2)OCO3)C1,-13,-11,5,.,.,.,2,4
Cc1ccc2oc(=O)c3cnn(CC(=O)N4CCCc5ccccc54)c3c2c1,-15,7,-5,i,-6,6,-1,3
O=Cc1cc([N+](=O)[O-])ccc1N1CCN(Cc2ccc3c(c2)OCO3)CC1,-6,8,-3,i,8,2,7,-6
Nc1nn(-c2ccccc2)nc1C(=O)OCc1ccccc1F,.,.,.,i,3,0,0,-2
CCCNC(=O)COc1coc(CN2CCN(c3ccccc3OC)CC2)cc1=O,-18,-6,-6,i,-6,0,2,3
S=c1[nH]nc(CSc2nc3ccccc3s2)o1,-29,.,-4,i,14,-2,2,3
CC(=O)c1ccccc1N(C(=O)c1ccco1)C(C(=O)NC1CCCC1)c1ccc(C)cc1 (configuration not stated),5,26,.,i,-6,-3,-5,4
O=C(O)c1ccc(S(=O)(=O)N2CCC(NC(=O)C3CCCCC3)CC2)cc1,.,2,-8,i,8,-6,-2,4
CCCCOc1ccc(Nc2nc(C)cc(C)c2C#N)cc1,-14,.,-10,i,15,12,2,4
